Screens (PubChem BioAssay)
Methyltransferases: Primary Screen for Target Class Profiling of Small Molecule Inhibitors of Methyltransferases. purified enzyme, MTase-Glo SAH luminescence; active compounds read low. calls only at 40 µM. 3.9% of 25,000 active; active = -50% or lower on at least one of six enzymes; inconclusive = the cases between; inactive = as a rule above -30% on all six;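 note: enzymes were COMT GAMT GNMT HNMT NNMT and PNMT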
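Each enzyme was reacted with SAM and its substrate, with compounds tested once at 40 uM; SAH formed was read by MTase-Glo luminescence.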
Calls only; i = inactive; ? = inconclusive; + = active, no number; ! = repeats disagree. % is set by controls: 0 for no effect and ±100 for the full control effect. A portion of the library; count on the stated rates, not on these rows.

| SMILES | Methyltransferases |
| --- | --- |
| CN1CCN(C(=O)c2cc3n(n2)CC(C)(C(=O)NC2CCCCCC2)N(C)C3=O)CC1 (stereo not given) | i |
| COc1ccc(C(=O)N2CCCCCNC(=O)[C@@H]3CCC[C@@H]32)cn1 | i |
| COc1ccc(C)cc1NC(=O)Cn1c(=O)oc2cc(S(=O)(=O)N3CC(C)CC(C)C3)ccc21 (stereo not given) | i |
| CC1(C)[C@H]2CC[C@@H](CNC(=O)C3CC3)[C@@H]1C2 | i |
| Cc1cc(Cl)ccc1COc1ccnn1-c1cc(C(=O)O)ccn1 | ? |
| O=S(=O)(c1ccc(Cl)c(-c2nnc(-c3ccccc3)o2)c1)N1CCN(c2ccccc2)CC1 | i |
| CN(CCN1C(=O)c2cc3sccc3n2CC1(C)C(=O)NC1CCCCC1)C1CCCCC1 (stereo not given) | i |
| C=C1CC23CC1CCC2C12OC(=O)C(C)(CCC1O)C2C3C(=O)O (stereo not given) | ? |
| CCOc1ccc(CCN2C(=O)c3c(C(=O)OC)ncn3CC2(C)C(=O)NC2CCCCCC2)cc1 (stereo not given) | i |
| CS(=O)(=O)N(Cc1ccccn1)C1CN(C(=O)Cn2c(=O)oc3ccccc32)C1 | i |
| N#Cc1c(O)c2c(-c3ccc(-c4ccccc4O)cc3)csc2[nH]c1=O | +! |
| CN(CC1CCOC1)C(=O)NCc1ccc(F)cc1 (stereo not given) | i |
| CC1(C(=O)N2CCCC(CCc3ccc(F)c(F)c3)C2)CC1 (stereo not given) | i |
| O=C(NCc1cccc(Cl)c1)c1ccc2oc(-c3cccnc3)nc2c1 | i |
| COc1ccc(CN2C[C@H]3CN(S(=O)(=O)c4ccc(C)cc4)CCN3C2=O)cc1 | i |
| C=C1CCC2C(C)(C)CC(O)CC2(C)C1CCC(C)CC(=O)O (stereo not given) | ? |
| CCCCCOc1ccc(-c2cc(-c3ccc(C(=O)N[C@H]4C[C@@H](O)[C@@H](O)NC(=O)C5[C@@H](O)[C@@H](C)CN5C(=O)C([C@H](O)CC(N)=O)NC(=O)C([C@H](O)[C@@H](O)c5ccc(O)c(OS(=O)(=O)O)c5)NC(=O)C5C[C@@H](O)CN5C(=O)C([C@@H](C)O)NC4=O)cc3)no2)cc1 (stereo not given in full) | i |
| CC(C)CCn1c(=O)c2ccc(C(=O)NC(C)C)cc2n2c(=O)n(CC(=O)c3ccc(Cl)cc3)nc12 | i |
| CN(C)[C@@H]1[C@@H](NS(=O)(=O)c2cccc3c2OCCO3)[C@H]2CCO[C@H]21 | i |
| COC(=O)CNC(=O)c1cc(-c2ccc(Cl)cc2Cl)c2cnn(C)c2n1 | ? |
| C=Cc1ccc(Cn2nc3n(Cc4ccccc4)c(=O)c4ccc(C(=O)NCC(C)C)cc4n3c2=O)cc1 | i |
| Cc1cc(C)cc(NC(=O)Cn2c(=O)oc3cc(S(=O)(=O)N4CCCC4)ccc32)c1 | i |
| COc1cc(F)ccc1-c1nc(-c2c(C)noc2C)cc2cc(C)oc12 | ? |
| CC(=O)N1CCCN(c2ncnc3c2CN(c2ccc([N+](=O)[O-])cc2)C(=O)N(C)C3)CC1 | i |
| CC(=O)c1c(C)cc2cccc(O)c2c1O[C@@H]1O[C@H](CO)[C@@H](O)[C@H](O)[C@H]1O | ? |
| CCC(C)NC(=O)c1ccc2c(=O)n(C)c3nnc(SCc4ccccc4)n3c2c1 (stereo not given) | i |
| CC(C)c1ccc(NC(=O)CSc2nnc3[nH]c(=O)c(C(C)(C)C)nn23)cc1 | i |
| O=[S+]1([O-])N(c2ccccc2)C[C@@H](O)[C@]12CCN(Cc1ccc(C(F)(F)F)nc1)C2 | i |
| COc1ccc(N2C(=O)c3cc4ccccc4n3CC2(C)C(=O)NC2CCCCC2)c(OC)c1 (stereo not given) | i |
| CCCNc1nc2c(-c3cccc(F)c3)nnn2c2ccc(Cl)cc12 | i |

The last 3 compounds of the section before are carried over, then new ones follow.
| SMILES | Methyltransferases |
| --- | --- |
| O=[S+]1([O-])N(c2ccccc2)C[C@@H](O)[C@]12CCN(Cc1ccc(C(F)(F)F)nc1)C2 | i |
| COc1ccc(N2C(=O)c3cc4ccccc4n3CC2(C)C(=O)NC2CCCCC2)c(OC)c1 (stereo not given) | i |
| CCCNc1nc2c(-c3cccc(F)c3)nnn2c2ccc(Cl)cc12 | i |
| COC(=O)[C@@H]1Cc2ncn(C(C)C)c2CN1S(C)(=O)=O | i |
| O=C(NCCc1ccccc1)c1ccc2c(=O)nc3c(-c4cccc(C(F)(F)F)c4)n[nH]n3c2c1 | i |
| CC1(C(=O)NC2CCCCCC2)Cn2c(ccc2-c2ccco2)C(=O)N1CCc1cccc(Cl)c1 (stereo not given) | i |
| CCOc1ccc(CN2C(=O)c3cc(C(=O)OC)nn3CC2(C)C(=O)NC2CCC(C)CC2)cc1 (stereo not given) | i |
| OC[C@@H]1CNC[C@H]1C1CCN(Cc2ccsc2)CC1 | i |
| CCC(C)NC(=O)c1cccc(-c2ccc(OC)nn2)c1 (stereo not given) | i |
| Cc1cc(C(=O)N2CCC(N3CCCC(C(=O)NCCc4ccccc4)C3)CC2)n[nH]1 (stereo not given) | i |
| CN(C)C[C@H]1O[C@@H](CO)[C@@H](O)[C@H]1N1CCN(c2ncccn2)CC1 | i |
| COc1cccc(NC(=O)Cn2c(=O)oc3cc(S(=O)(=O)N4CCCCC4C)ccc32)c1 (stereo not given) | + |
| O=c1[nH]c2ccccc2n1C1CCN(S(=O)(=O)c2ccc(-n3cnnn3)cc2)CC1 | i |
| CC1CCCCC1NC(=O)C1(C)Cn2c(nc3ccccc32)C(=O)N1Cc1ccccc1F (stereo not given) | i |
| COc1ccccc1CNC(=O)CCc1nnc2n(CCCOC(C)C)c(=O)c3ccccc3n12 | i |
| C1=C/COCc2cc(ccc2OCCN2CCCC2)Nc2nccc(n2)-c2cccc(c2)COC/1 | ? |
| CNC(=O)c1cccc(S(=O)(=O)NC2CCCN(C3CCCCCC3)C2)c1 (stereo not given) | i |
| COc1cccc(NC(=O)C2(C)CCc3cnc(NCc4ccccc4)nc32)c1 (stereo not given) | i |
| CC(O)(C#Cc1ccc2c(c1)N(c1nc(N)ncc1Cl)CC2)c1nccs1 (stereo not given) | ? |
| CC1CC(C)CN(S(=O)(=O)c2ccc3c(c2)oc(=O)n3CC(=O)NCCc2ccccc2)C1 (stereo not given) | i |
| COc1cccc(CN2C(=O)c3cc4sccc4n3CC2(C)C(=O)NC2CCC(C)CC2)c1 (stereo not given) | i |
| COc1c2ccoc2nc2c(OC)c(O[C@@H]3O[C@@H](C)[C@H](O)[C@@H](O[C@@H]4O[C@H](CO)[C@@H](O)[C@H](O)[C@H]4O)[C@H]3OC(C)=O)ccc12 | ? |
| COc1ccc([C@H]2OC[C@H]3[C@@H]2CO[C@@H]3c2ccc(O[C@@H]3O[C@H](CO)C(O)[C@H](O)[C@H]3O)c(OC)c2)cc1OC (stereo not given in full) | i |
| C=C1CC[C@@H]2[C@@](C)(CO[C@@H]3O[C@H](CO)C(O)[C@H](O)C3O)[C@H](O)CC[C@@]2(C)[C@@H]1CC/C(C)=C/CO (stereo not given in full) | i |
| CCOc1ccc(CCN2C(=O)Cn3cccc3C2C(=O)NC2CCC(C)CC2)cc1 (stereo not given) | i |
| O=C(CCCCC1CCCCC1)N1CCC(c2cnc[nH]2)CC1 | i |
| CCCN1C(=O)c2c(C(=O)NCc3ccccc3F)ncn2CC1(C)C(=O)NCCC(C)C (stereo not given) | i |
| COc1cccc(-c2noc(CCCc3nc(C4CCOC4)no3)n2)c1 (stereo not given) | i |
| O=C1N(C2CCN(S(=O)(=O)c3cnc[nH]3)CC2)C(c2ccccc2)C12CCCC2 (stereo not given) | i |
| COCCCN1C(=O)c2ccccc2CC1(C)C(=O)NC1CCCCC1 (stereo not given) | i |
| CCn1ccnc1CNC(=O)c1cc(OC)ccc1OC1CCN(C(=O)C2CC2)CC1 | i |
| COc1ccc(-c2n[nH]n3c2nc(=O)c2ccc(C(=O)NCCc4ccc(Cl)cc4)cc23)cc1 | i |
| C[C@]1(O)CC[C@@H]2C(C(=O)O)=CO[C@@H](O[C@@H]3O[C@H](COC(=O)/C=C/c4ccc(O)c(O)c4)[C@@H](O)[C@H](O)[C@H]3O)[C@@H]21 | i |

| SMILES | Methyltransferases |
| --- | --- |
| COc1cccc(-c2ccc(CN3CCCC(NC(=O)c4ccc(Cl)cc4)C3)cc2)c1 (stereo not given) | i |
| O=C(CCc1nnc2n(Cc3ccc(Cl)cc3)c(=O)c3ccccc3n12)Nc1ccccc1 | i |
| C/C(=C\CCC(C)(O)c1ccc(C)cc1)C(=O)O (stereo not given) | i |
| Cn1c2c(c3ccccc31)C(C(=O)NCc1ccccc1)N(c1cccc(C(F)(F)F)c1)C(=O)CS2 (stereo not given) | i |
| CC(C)(C)c1ccc(CN2CC3(COCC2=O)CN(c2cnccn2)C3)cc1 | i |
| Cc1ccc(C)c(N2CCN(C(=O)c3ccc4c(=O)nc5c(-c6cccc(F)c6)n[nH]n5c4c3)CC2)c1 | i |
| CN1c2ccccc2C(=O)N2CCC3c4ccccc4NC3C21 (stereo not given) | i |
| Cc1ccc(NC(=O)CSc2nnc3n(CC(C)C)c(=O)c4cc(F)ccc4n23)cc1 | i |
| CC(C)c1ccc(S(=O)(=O)NCCn2c(CCc3ccccc3)nc3ccccc32)cc1 | i |
| CC(C)(C)CC(=O)N1CC[C@H](NC(=O)NC2CCCCC2)[C@H]1C(=O)N[C@H](Cc1c[nH]c2ccccc12)C(N)=O | i |
| COC1CC(=O)C23C(=O)NC(Cc4c[nH]c5ccccc45)C2C(C)C2(C)OC2C3/C=C/CC(C)CC1O (stereo not given) | i |
| CCCN1C(=O)c2cc(C(=O)NCc3ccc(Cl)cc3)nn2CC1(C)C(=O)NC1CCCC1 (stereo not given) | i |
| CCC(C)NC(=O)c1ccc2c(=O)n(C)c3nn(CC(=O)NCc4ccccc4Cl)c(=O)n3c2c1 (stereo not given) | i |
| CCOC(=O)c1cc2n(n1)CC(C)(C(=O)NCCC(C)C)N(Cc1ccc(Cl)cc1)C2=O (stereo not given) | i |
| CCCC1(CO)CCCN(Cc2cnn(-c3cccc(F)c3)c2)C1 (stereo not given) | i |
| COc1ccc2cc3n(c2c1)CC(C)(C(=O)NC1CCCCCC1)N(CCN1CCCC1)C3=O (stereo not given) | i |
| CCN1C(=O)c2cc3ccccc3n2CC1(C)C(=O)NCc1ccccc1OC (stereo not given) | i |
| CN(NC(=O)CC(=O)NN(C)C(=S)c1ccccc1)C(=S)c1ccccc1 | i |
| COc1cc(SC)ccc1C(=O)N1CCC(Cc2ccccc2)CC1 | i |
| CCc1ccc(S(=O)(=O)c2nnn3c2nc(NCCOC)c2cc(Cl)ccc23)cc1 | i |
| O=C(NC1CC1)c1cc2n(n1)CCCN(C(=O)c1ccccc1-c1ccccc1)C2 | i |
| Cc1nc(C)c(C(=O)N2CCC3(CC2)NC(=O)CC3C(=O)O)s1 (stereo not given) | i |
| O=C(Nc1ccc(Cl)cc1)c1nc(Nc2ccccc2)c2ccccc2n1 | i |
| CCCCNC(=O)[C@H]1CCC[C@H]1NC(=O)c1ccncc1 | i |
| N#Cc1ccc2[nH]c(O)c(-c3ccc(CN4CCOCC4)cn3)c2c1 | ? |
| COc1cc(OC)c(NC(=O)Cn2c(=O)oc3cc(S(=O)(=O)N4CCCC4)ccc32)cc1Cl | i |
| COc1ccc2cc3n(c2c1)CC(C)(C(=O)NC1CCCCC1)N(Cc1ccccn1)C3=O (stereo not given) | i |
| C=Cc1ccc(Cn2nc3n(CCC)c(=O)c4ccc(C(=O)NC5CCCCC5)cc4n3c2=O)cc1 | i |
| Cc1cc(Nc2cccc(C(F)(F)F)c2)nc2ccc(NC(=O)Cc3ccc(Cl)cc3)cc12 | ? |
| CC(=O)[C@@H]1C[C@H](C(C)(C)O[C@@H]2O[C@H](CO)[C@@H](O)[C@H](O)[C@H]2O)CC[C@@]2(CO)OC(=O)C[C@@H]12 | i |

| SMILES | Methyltransferases |
| --- | --- |
| COC(=O)c1ncn2c1C(=O)N(CCCOC(C)C)C(C)(C(=O)NC1CCCCCC1)C2 (stereo not given) | i |
| CC(=O)Nc1c2n(c3ccc(F)cc13)CC(C)(C(=O)NC1CCCC1)N(Cc1ccc(C)cc1)C2=O (stereo not given) | i |
| CC(C)NC(=O)c1ccc2c(=O)n(Cc3ccccc3)c3nn(Cc4cccc(Cl)c4)c(=O)n3c2c1 | i |
| Cc1ccc(C)c(CSc2nnc3n(C)c(=O)c4ccc(C(=O)NC5CCCCC5)cc4n23)c1 | i |
| CC[C@H](C)/C=C(C)/C=C/C1=CC2=CC(=O)[C@]3(C)OC(=O)[C@@H](C(C)=O)[C@@H]3C2=CO1 | i |
| CCCOc1cc2oc(=O)cc(-c3ccccc3)c2cc1Cl | i |
| O=C(NCc1ccc(Cl)cc1)c1cc2n(n1)CC(c1ccc3c(c1)OCO3)OC2 (stereo not given) | i |
| C=C1CC[C@@H]2[C@](C)(CO)[C@H](O[C@@H]3O[C@H](CO)[C@@H](O)[C@H](O)[C@H]3O)CC[C@@]2(C)[C@@H]1C/C=C1/C(=O)OC[C@H]1O | i |
| CC(C)CC(NC(=O)OCc1ccccc1)C(=O)NC(CC(C)C)C(=O)NC(CCC(=O)O)C(=O)Nc1ccc2ccccc2c1 (stereo not given) | i |
| COc1cccc(S(=O)(=O)N2CCCC(Cc3nncn3C)C2)c1 (stereo not given) | i |

Filtered by structure: the entries above containing a CF3 group (4)
| SMILES | Methyltransferases |
| --- | --- |
| O=[S+]1([O-])N(c2ccccc2)C[C@@H](O)[C@]12CCN(Cc1ccc(C(F)(F)F)nc1)C2 | i |
| O=C(NCCc1ccccc1)c1ccc2c(=O)nc3c(-c4cccc(C(F)(F)F)c4)n[nH]n3c2c1 | i |
| Cn1c2c(c3ccccc31)C(C(=O)NCc1ccccc1)N(c1cccc(C(F)(F)F)c1)C(=O)CS2 (stereo not given) | i |
| Cc1cc(Nc2cccc(C(F)(F)F)c2)nc2ccc(NC(=O)Cc3ccc(Cl)cc3)cc12 | ? |
